S aureus helic – inhibitors of S. aureus replicative helicase, primary screen, biochemical, fluorescence unwinding readout. inhibition, %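 (tested at about 80 µM)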. AID 485395, 2010. purified S. aureus helicase, fluorescence unwinding assay; about half of the hits fall short of the stated cut. 120,000 tested, 0.05% active;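 active = both duplicates at 50% or more, or one of them with a favoured structure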;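 note: 0% = mean of negative control wells and 100% = mean of positive control wells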
MgrA DNA FP – S. aureus MgrA activity modulators, primary screen, biochemical, S. aureus Newman, fluorescence polarization; MgrA-DNA binding; inhibition, %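 (about 10 µg/mL by stock and volumes)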; 84,000 tested, 0.13% active; AID 602314, 2012;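 active = above 50% in either of two replicates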;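 note: 0% = protein plus DNA without compound and 100% = DNA alone without protein; higher means less MgrA bound to DNA so lower polarization; one replicate is shown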
Numbers without * were called inactive; . = not tested or not shown; & = joins results of further samples. Some of the compounds tested, so the mix of outcomes need not match the whole.

no. | Compound | S aureus helic | MgrA DNA FP
1 | Cc1nc(-c2ccc(S(=O)(=O)NCC3CCN(C(=O)OC(C)(C)C)CC3)s2)cs1 | . | 2.7
2 | COC1OC(COC(C)=O)C(OC(C)=O)C(C#N)(C#N)C1OC(C)=O (stereo unspecified) | -5 | -0.6
3 | O=C(c1ccccc1)c1cccn1CC(=O)N1CCN(c2ccc(F)cc2)CC1 | 22 | .
4 | O=C(Nc1ccc2oc(-c3ccccc3Cl)nc2c1)c1ncn[nH]1 | -9 | .
5 | CCCCc1ccc(NC(=O)N2CCN(c3cc(C)nc4ccccc34)CC2)c(C)c1 | . | -1.1
6 | O=C(CN1CCCCC1)Nc1cccc2nsnc12 | -7 | .
7 | O=C(CCCn1c(=O)c2cccn2c2ccccc21)NC1CCCC1 | 9 | 3.4
8 | NC(=O)COC(=O)CC12CC3CC(CC(Br)(C3)C1)C2 | -6 | -0.7
9 | NC(=O)C1CCN(c2ccc(Cl)nn2)CC1 | 5 | .
10 | NS(=O)(=O)c1ccc(CNC(=O)c2scc3c2OCCO3)cc1 | 7 | .
11 | COC(=O)C(CC(C)C)NS(=O)(=O)c1ccc(-c2nnc(SC)n2C)s1 (stereo unspecified) | . | 2.0
12 | Cc1cnc(=O)[nH]c1SCC(=O)c1ccc(F)cc1 | 9 | .
13 | COc1ccc(-c2n[nH]c(=S)n2CCC(=O)O)cc1 | 8 | .
14 | CC(C)c1ccc(Nc2c(-c3ccccc3)nc3cnccn23)cc1 | 7 | 0.8
15 | O=S1(=O)CCC(N=Cc2ccccc2Cl)C1 (stereo unspecified) | -6 | 2.2
16 | Cc1cc(/C(N)=N/OC(=O)Nc2ccccc2)no1 | -3 | .
17 | CC1CCCC(C)N1C(=O)COc1ccc(Br)cc1 (stereo unspecified) | -5 | .
18 | COc1ccc(NC(=O)Nc2c(SC)nsc2SC)cc1 | -4 | -0.3
19 | O=C(/C=C/c1ccc(F)cc1)NC(=S)Nc1ccccc1O | 10 | 2.2
20 | CCOc1cc(C#N)c(NC(=O)c2cccs2)cc1OCC | 17 | .
21 | O=C(NCCc1c[nH]c2ccccc12)c1ccc2nc[nH]c2c1 | -27 | .
22 | CC1CC/C(=C\c2ccc(Cl)cc2)C(=O)C1 (stereo unspecified) | -7 | .
23 | CCCCCOc1ccc(C(CC(N)=O)CC(=O)O)cc1 (stereo unspecified) | 0 | 3.5
24 | CCOCCCN=C1NC(CC)CS1 (stereo unspecified) | -12 | .
25 | CCN(Cc1nc(-c2ccc(OC)c(OC)c2)no1)C(=O)CCC1CCCCC1 | 7 | -2.8
26 | CS(=O)(=O)N1CCN(C(=O)c2ccccc2)CC1 | 9 | 0.6
27 | Cc1nn(-c2ccccc2)c2nc(N)c(C#N)c(-c3ccco3)c12 | 11 | .
28 | Cc1ccc(NC(=O)COC(=O)CC2Oc3ccccc3NC2=O)cc1 (stereo unspecified) | 4 | .
29 | N=C1C(c2nc3ccccc3s2)=C(O)CN1C1CCCC1 | 4 | .
30 | O=C(O)c1ccc(-c2ccc(/C=C3\Sc4ccccc4C3=O)o2)cc1 | -97 | 15
31 | C/C(=N\O)c1csc(-c2ccno2)n1 | . | 0.2
32 | CCCOc1ccc(C2C(C(=O)OC)=CN(CCOC)C=C2C(=O)OC)cc1 | 7 | 1.0
33 | O=C(OCc1ccc2nonc2c1)c1c2c(nc3ccccc13)CCCC2 | -14 | 0.3
34 | CCOC(=O)CCc1c(C)c2c(C)nn(-c3ccccc3)c2[nH]c1=O | 13 | .
35 | CC(C)c1ccc(-c2nnn(Cc3cc(=O)n4ccsc4n3)n2)cc1 | 3 | .
36 | Nc1cc(C(F)(F)F)ccc1Oc1ccc(Cl)cc1Cl | . | 1.5
37 | CN(Cc1ccccc1)C(=O)c1c[nH]c2ccc(S(=O)(=O)N3CCOCC3)cc2c1=O | 10 | 5.0
38 | CC1=C(c2cccc(Br)c2)S(=O)(=O)NC1=NC1CCCC1 | 14 | .
39 | Cc1ccc(S(=O)(=O)N(c2nc(N(C)C)nc(N(C)C)n2)n2cnnc2)cc1 | -3 | 0.6
40 | O=C(O)c1ccc(Nc2ncnc3ccccc23)cc1 | 1 | .
41 | Cc1ccc(-n2ncc3c(=O)n(CC(=O)N4CCc5ccccc54)cnc32)cc1C | 6 | .
42 | Fc1cccc(Cl)c1CSC(=S)N1CCSCC1 | . | -0.8
43 | CCOC(=O)c1ccc(N2C(=O)CC(N3CCN(c4ccc(O)cc4)CC3)C2=O)cc1 (stereo unspecified) | -5 | 0.4
44 | CC1CCC(C(=O)NC(C(=O)NCc2ccccn2)C(C)C)CC1 (stereo unspecified) | 17 | 4.4
45 | CN(C)c1ccc(-n2nnnc2SCC(=O)C(C)(C)C)cc1 | . | -0.6
46 | CC(=O)NC(CC(=O)n1nnc2ccccc21)c1ccccc1 (stereo unspecified) | 8 | .
47 | Cc1nnc(COC(=O)CC23CC4CC(CC(C4)C2)C3)o1 | -3 | .
48 | CCc1ccc2c(c1)c1nc3ccccc3nc1n2CC | -9 | 3.2
49 | CN(C)S(=O)(=O)c1ccc(C(N)=O)cc1 | -23 | .
50 | Cn1c(SCC(=O)Nc2ccccc2)nnc1-c1ccc2ccccc2c1 | . | 0.0
51 | COc1cc2c3c(c1)C1(C(=O)N3C(C)(C)C=C2C)C(C#N)=C(N)NC(=O)C1C(N)=O (stereo unspecified) | 9 | -7.9
52 | COc1ccc(OC(=O)c2ccc(-c3ccccn3)s2)cc1 | . | -1.7
53 | Cc1oc2c(c1CC(=O)O)C(=O)CC(C)(C)C2 | 19 | -5.2
54 | CN(C)c1cccc(N(C)C)c1CNC(=O)NC(=O)c1c(Cl)cccc1Cl | 22 | .
55 | CC(C)Oc1ccccc1NC(=O)CSc1nnc(-c2ccco2)n1-c1ccccc1 | 9 | .
56 | CCOC(=O)c1cnc2c(C)cc(Cl)cc2c1Cl | -33 | .

Following part.
no. | Compound | S aureus helic | MgrA DNA FP
57 | C=CCSc1n[nH]c(-c2ccc(OC)cc2)n1 | -9 | -5.1
58 | O=C(NCCc1ccccc1)c1nnc(CS(=O)(=O)c2ccccc2)o1 | 10 | 1.2
59 | CCOc1ccc(N(C)S(=O)(=O)c2cnc[nH]2)cc1 | -12 | .
60 | CCN(CC)C(=S)SCc1nc(N)nc(Nc2ccc(C)cc2)n1 | -27 | .
61 | CCOc1ccc(N2C(=O)N(CC(=O)N3CCCCC3C)c3ccccc3S2(=O)=O)cc1 (stereo unspecified) | -11 | .
62 | CCc1nc2cccnc2n1CCNC(=O)Nc1ccc(OC)cc1 | 2 | -2.3
63 | Cc1c(C=Nc2ccc(N3CCOCC3)cc2)c2ccccc2n1C | 10 | -3.8
64 | CC(C)N(C(=O)CSc1nnc(-c2ccco2)n1C)C(C)C | -22 | 1.8
65 | Cc1ccccc1NC(=O)CSC1=NCCN1 | 14 | .
66 | O=C(CSc1ncccc1C(=O)O)c1ccccc1F | 5 | .
67 | Cc1c(C(=O)N2CCC(C(N)=O)CC2)sc(N)c1C#N | 11 | 0.8
68 | C=CCn1c(C)cc(C(=O)CSc2nc(-c3ccccc3)cn2N)c1C | 16 | .
69 | O=C(NC1CC2CCC1C2)c1ccccc1 (stereo unspecified) | -7 | -0.3
70 | FC(F)(F)c1cc(Cl)nc(-c2ccncc2)n1 | . | 7.8
71 | CC1N(O)C(C)(C)C(c2ccccc2)=[N+]1[O-] (stereo unspecified) | 5 | .
72 | C=CCN(C(=O)c1cccc(Cl)c1)c1ccccc1C(=O)NCC(=O)OCC | . | 0.9
73 | O=C(c1ccccc1)N1CCN(c2ccnc3cc(Cl)ccc23)CC1 | . | -2.3
74 | CC1CCCCC12NC(=O)N(CCC#N)C2=O (stereo unspecified) | 11 | .
75 | CC1(C)CC(=O)C=C(NCc2ccccc2)C1 | -12 | -0.8
76 | O=C(CSc1nc2ccccc2o1)Nc1ccccc1 | 11 | .
77 | CCOC(=O)c1sc(SCc2c(Cl)cccc2Cl)c(S(=O)(=O)C(C)C)c1N | . | 0.7
78 | COc1cc(OC)cc(-n2c(-c3ccco3)nc3nc4ccccc4nc32)c1 | -3 | .
79 | O=S(=O)(NCc1cccnc1)c1cccc2nsnc12 | 15&-9 | .
80 | Cc1nccc(-c2cc(-c3cccc(C(F)(F)F)c3)no2)n1 | . | -1.0
81 | CCC(Sc1nc(=O)cc(N)n1CCc1ccccc1)C(=O)Nc1ccccc1C#N (stereo unspecified) | 9 | .
82 | COc1ccc(/C=C/C#N)c(Cl)c1OC | . | 3.9
83 | COC(=O)c1ccc2c(c1)C1C3CCC(C3)C1C(c1ccccc1)N2 (stereo unspecified) | -2 | -0.7
84 | CC(C)OC(=O)C(C)Oc1ccc2c3c(c(=O)oc2c1)CCC3 (stereo unspecified) | -14 | .
85 | Cc1cc(OCC(=O)N(c2ccccc2)C2CCCCC2)c2ccccc2n1 | . | 0.1
86 | O=C1CC(c2ccccc2)CN1C(=O)c1ccccc1Cl (stereo unspecified) | 10 | 2.0
87 | O=C1/C(=C/c2cccs2)SC(=S)N1C1CCCCC1 | 14 | 4.3
88 | CS/C(=C(/C#N)S(=O)(=O)c1ccc(Cl)cc1)N1CCOCC1 | -18 | .

Fetched by structure from the list above, six records:
no. | Compound | S aureus helic | MgrA DNA FP
24 | CCOCCCN=C1NC(CC)CS1 (stereo unspecified) | -12 | .
68 | C=CCn1c(C)cc(C(=O)CSc2nc(-c3ccccc3)cn2N)c1C | 16 | .
38 | CC1=C(c2cccc(Br)c2)S(=O)(=O)NC1=NC1CCCC1 | 14 | .
60 | CCN(CC)C(=S)SCc1nc(N)nc(Nc2ccc(C)cc2)n1 | -27 | .
44 | CC1CCC(C(=O)NC(C(=O)NCc2ccccn2)C(C)C)CC1 (stereo unspecified) | 17 | 4.4
42 | Fc1cccc(Cl)c1CSC(=S)N1CCSCC1 | . | -0.8

Continued:
no. | Compound | S aureus helic | MgrA DNA FP
89 | NS(=O)(=O)c1cc(C(=O)OCC(=O)NC2CC2)ccc1Cl | 14 | .
90 | [O-]/[N+](=C\c1ccco1)C/C(=N/O)c1cccs1 | 8 | 2.0
91 | CCOC(=O)CC(=O)c1sc(SCc2ccccc2)nc1N | 4 | -0.2
92 | CC(C)N(Cc1ccccc1)C(=O)c1ccccc1 | 3 | 2.2
93 | CC(C)N(C(=O)NCc1ccccc1)C(C)C | . | -0.9
94 | CCOc1ccc2nc(NC(=O)c3ccc4c(c3)OCCO4)sc2c1 | . | -2.6
95 | Cc1ccc(OCCn2c(SCC(N)=O)nc3ccccc32)cc1 | 13 | .
96 | Cc1cccc(N2CC(C(=O)O)CC2=O)c1 (stereo unspecified) | 3 | -5.8
97 | Cn1ccsc1=NC(=O)COc1cccc2ccccc12 | -5 | .
98 | CC(c1ccccc1)C1C(C#N)=C(N)SC(N)=C1C#N (stereo unspecified) | 2 | 10
99 | CCCCn1c(=O)[nH]c(=O)c2c(C(=O)OCC)cc(-c3ccccc3Cl)nc21 | -16 | .
100 | OC(CNCc1ccccc1)C(F)(F)F (stereo unspecified) | . | -0.4
101 | Cc1nn(C(=O)c2ccco2)c(C)c1Sc1ccccc1 | 15 | .
102 | CC1(C)CCc2cc(-c3ccn[nH]3)ccc2O1 | . | -2.7
103 | CCOC(=O)/C(C)=N\O | -4 | .
104 | C=CCS/C(=N\n1cnc2ccccc2c1=O)N1CCCCC1 | -1 | -1.8

Sorted by value in S aureus helic (low to high): 5 of the compounds above
No. | SMILES | S aureus helic | MgrA DNA FP
57 | C=CCSc1n[nH]c(-c2ccc(OC)cc2)n1 | -9 | -5.1
97 | Cn1ccsc1=NC(=O)COc1cccc2ccccc12 | -5 | .
41 | Cc1ccc(-n2ncc3c(=O)n(CC(=O)N4CCc5ccccc54)cnc32)cc1C | 6 | .
86 | O=C1CC(c2ccccc2)CN1C(=O)c1ccccc1Cl (stereo unspecified) | 10 | 2.0
44 | CC1CCC(C(=O)NC(C(=O)NCc2ccccn2)C(C)C)CC1 (stereo unspecified) | 17 | 4.4

More compounds
no. | Compound | S aureus helic | MgrA DNA FP
105 | Cc1ncc(CSCC(=O)Nc2cc(C(F)(F)F)cc(C(F)(F)F)c2)c(CO)c1O | . | 2.7
106 | CC(NC(=O)c1nc2ncccn2n1)c1ccccc1 (stereo unspecified) | 8 | -3.6
107 | OC(COc1ccccc1Br)CN1CCN(Cc2ccccc2)CC1 (stereo unspecified) | 3 | .
108 | O=C1CSc2ccc(C(=O)N3CCCCC3)cc2N1 | 12 | .
109 | Cc1csc(=O)n1CC(=O)NC1CCCc2ccccc21 (stereo unspecified) | -7 | .
110 | O=[N+]([O-])c1ccc(-c2cn3ccccc3n2)cc1 | . | 0.1
111 | CC1=CS/C(=C(/C#N)C(N)=O)N1c1ccccc1 | 11 | 0.8
112 | COC(=O)N/N=C/c1ccc(-c2ccccc2)o1 | -6 | .
113 | Cc1ccc2c(c1)nnn2C1CCN(C(=O)Nc2ccc(C#N)cc2)CC1 | 15 | -35
114 | O=C(COC(=O)c1ccccc1Br)c1cccs1 | 2 | -1.2
115 | O=C(C1CCCC1)N1CCN(c2cnn(-c3ccccc3)c(=O)c2Cl)CC1 | -7 | -1.1
116 | Cc1cc(C(=O)N(C)Cc2ccccc2)on1 | 15 | .
117 | CC(=C\c1ccccc1)/C=C1/SC(=O)NC1=O | 11 | 3.7
118 | COc1ccc(C(=O)CSc2nc3ccccc3s2)cc1 | 16 | .
119 | Cc1ccc2cc(CN(Cc3ccccc3)C(=O)c3ccccc3C)c(=O)[nH]c2c1 | 18 | -1.4
120 | N#Cc1ccc(C2=NC(C(F)(F)F)(C(F)(F)F)c3c(n(Cc4ccco4)c(=O)[nH]c3=O)N2)cc1 | 44 | .
121 | Cc1ccc(S(=O)(=O)NC(O)C(=O)c2cccs2)cc1 (stereo unspecified) | 3 | -1.3
122 | O=C(NCCCc1ccccc1)c1c(O)nc2sccn2c1=O | 5 | .
123 | CN(C)C=NC(=O)C1CCN(c2cccc(F)c2C#N)CC1 | . | 0.1
124 | CC(NC(=O)c1ccccc1NC(=O)c1ccccc1)C(=O)N1CCCC1 (stereo unspecified) | -5 | 0.9
125 | CC(C)(C)c1ccc(C(=O)N(CC#N)CC#N)cc1 | 9 | -1.6

Screens as filed in PubChem BioAssay.
